Screening results: PubChem BioAssay, National Center for Advancing Translational Sciences (NCATS)
N370S GC – qHTS Assay for Inhibitors and Activators of N370S glucocerebrosidase as a Potential Chaperone Treatment of Gaucher Disease. 0.092% of 330,000 active. Potency, µM (top dose mostly 59.4 µM), inactives show top-dose activity change, negative = inhibition, actives largely listed as inhibitors. N370S GC spleen homogenate, 4MU-glucoside fluorescence;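 further: 0% = full enzyme activity and -100% = no enzyme basal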
TDP1 inh – qHTS Assay for Inhibitors of Tyrosyl-DNA Phosphodiesterase (TDP1); Tyrosyl-DNA phosphodiesterase 1 (Homo sapiens), Q9NUW8; recombinant TDP1, AlphaScreen DNA substrate cleavage; Potency, µM (highest dose often 130 µM), without a hit: at the top dose activity change, negative = inhibition, hits mostly inhibitors; 0.28% of 350,000 active; AID 485290, 2010; further: nearly all actives have a fitted effect of over 40% in size
Target sequence (Q9NUW8 whole entry, looked up): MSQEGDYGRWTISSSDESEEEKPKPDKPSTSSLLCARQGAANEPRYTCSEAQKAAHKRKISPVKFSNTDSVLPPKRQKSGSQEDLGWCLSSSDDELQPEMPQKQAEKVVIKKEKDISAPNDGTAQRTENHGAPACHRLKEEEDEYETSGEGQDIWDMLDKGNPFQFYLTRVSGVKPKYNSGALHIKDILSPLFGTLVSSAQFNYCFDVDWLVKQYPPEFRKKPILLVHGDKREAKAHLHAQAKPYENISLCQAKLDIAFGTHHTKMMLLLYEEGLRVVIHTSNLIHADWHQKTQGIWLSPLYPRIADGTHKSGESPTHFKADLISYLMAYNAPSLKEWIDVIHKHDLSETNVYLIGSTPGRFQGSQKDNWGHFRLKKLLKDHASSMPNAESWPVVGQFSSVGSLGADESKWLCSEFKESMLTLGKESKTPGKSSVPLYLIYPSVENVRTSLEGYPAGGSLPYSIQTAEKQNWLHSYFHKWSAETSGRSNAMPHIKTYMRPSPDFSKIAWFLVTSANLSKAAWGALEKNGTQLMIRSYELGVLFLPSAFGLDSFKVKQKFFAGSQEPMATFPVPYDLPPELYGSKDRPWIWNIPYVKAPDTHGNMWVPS
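AlphaScreen read-out: signal falls as enzyme removes the 3' tyrosine-FITC from a 5'-biotinylated DNA oligo (15 nM, 5 min, RT). Enzyme was E. coli-made recombinant Tdp1 at 1 nM, exposed to compound for 15 min beforehand; beads 10 ug/ml, 10 min.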
* hit, by the source's call; ? = inconclusive; · = not tested or not shown; & = joins results of further samples; [ ] = another dose, or the depositor's remark. The call rests on the fitted dose curve; in most records, active means well fitted curve in the direction sought with a large enough effect; inconclusive means small, poorly fitted or top-dose-only effect, or another doubt; inactive means no such curve, though single readings can be large; an effect the other way counts as inactive or inconclusive. Unless noted, on the % scale 0 is the no-effect control and ±100 the full control effect; potency means the concentration at half of the fitted maximal effect. This is a subset, and most or all hits are left out here.

SMILES	N370S GC	TDP1 inh
NS(=O)(=O)c1ccc(CCNC(=O)c2cc(-c3cc(Cl)ccc3O)n[nH]2)cc1	-6%	8%
O=C1CCCC2=C1C(c1ccncc1)Nc1ccccc1N2 (centres undefined)	3%	4%
CCOC(=O)CC(=O)CSCC(=O)Nc1ccc(C)cc1	14%	0%
COC(=O)c1sc(N2C(=O)c3oc4ccccc4c(=O)c3C2c2cccc(O)c2)nc1C (centres undefined)	-2%	·
Cc1cccc(OCC(=O)Nc2ccc(S(=O)(=O)N3CCCC3)cc2)c1	5%	5%
CCn1cc(Cl)c(C(=O)Nc2c(C)nn(Cc3c(F)c(F)c(F)c(F)c3F)c2C)n1	-5%	2%
Cc1cc(C)cc(NC(=S)N2CC(C)OC(C)C2)c1 (centres undefined)	1%	2%
O=C(Nc1nccs1)c1ccc(N2C(=O)C3CCCCC3C2=O)cc1 (centres undefined)	8%	2%
C[C@H](O)C(=O)C1=Nc2c(nc(N)[nH]c2=O)NC1	12%&-3%	9%[56.1 µM]
CC(CCN1C(N(C)C)=NC[C@@H]1C)c1ccccc1 (some centres undefined)	-19%	-3%
COc1ccc(N2C(=O)C(CC(=O)O)S/C2=N\N=C\c2cccs2)cc1 (centres undefined)	-15%	·
O=C(Nc1ccc(F)cc1F)c1ccccc1-c1ccccc1	6%	-3%
CCOC(=O)C1CCN(C(=O)c2ccccc2NC(=O)c2ccc(Cl)cc2)CC1	11%	3%
CC(=O)N1CCC(N(C(=O)Nc2c(F)cccc2F)C(C)C)CC1	1%	0%&5%
CC(=O)c1c(C)[nH]c(C(=O)NC2CCCCC2)c1C	-24%	-7%
COc1cccc(NC(=O)CCS(=O)(=O)c2cc3c(cc2Cl)NC(=O)CO3)c1	-6%	-3%
CCN(CC)S(=O)(=O)c1ccc(-c2nnc3sc4cccc(C)c4n23)cc1	-10%	6%
Cc1cccc(C(C)C)c1NC(=O)C1CCN(S(=O)(=O)c2ccccc2)CC1	-15%	1%
COc1ccc(S(=O)(=O)N2CCCC(C(=O)N3CCOCC3)C2)cc1Cl (centres undefined)	-4%	3%
N#CCC(=O)c1ccccc1Oc1ccc(Cl)cc1	-1%	5%
O=C(COc1ccccc1Cl)c1ccc[nH]1	2%	·
Cc1ccc(S(=O)(=O)N(C)CC(=O)Nc2ncccc2C)cc1	-1%	-2%
O=C(Nc1cccc(NC(=O)c2ccc(Cl)cc2)n1)c1ccc(Cl)cc1	-1%	1%
COCc1cc(=O)[nH]c(/N=C(\N)Nc2cccc(Cl)c2)n1	1%	1%
COc1cc(C2NC(=O)CS2)cc(OC)c1OC (centres undefined)	-2%	0%
Cc1ccccc1C(=O)NC1CCN(CC(=O)Nc2nccs2)CC1	8%	6%
O=C(CN1C(=O)c2ccccc2S1(=O)=O)NCc1c(F)cccc1F	-3%	1%
O=C(Nc1ccc([N+](=O)[O-])cc1)N1CCN(C(=O)C2CCCO2)CC1 (centres undefined)	-7%	1%
Oc1ccc(/C=C/c2ccc3cccc(O)c3n2)cc1Br	-22%	·
CC1CCCCC12NC(=O)N(CC(=O)Nc1sccc1C(N)=O)C2=O (centres undefined)	·	0%
COC(=O)Nc1sc2c(c1C(N)=O)CCC(C)C2 (centres undefined)	1%	0%
O=c1cc([O-])[n+]2c3n1CCCN3CCC2	-7%	-9%
COC(=O)CN(c1ccc(F)cc1)S(=O)(=O)c1ccccc1	5%	-1%
CCCCOc1ccc(C(=O)OCC(=O)N2CCOCC2)cc1	-10%	-1%
COc1ccc(N(C(C)C(=O)Nc2ccc(S(=O)(=O)N3CCOCC3)cc2)S(C)(=O)=O)cc1 (centres undefined)	-7%	-2%
CCOC(=O)Nc1cccc(NC(=O)c2ccccc2F)c1	5%	3%
COc1ccc(CC(=O)OCC(=O)NC(=O)NC2CCCC2)cc1	·	-1%
CC(c1ccccc1)n1c(-c2ccccc2F)n[nH]c1=S (centres undefined)	-4%	4%
CC(C)(O)C#Cc1ccc(C(=O)N2CCN(C(=O)c3ccco3)CC2)cc1	26%	0%
Cc1nnc2c(NCC(C)c3ccccc3)nc3ccccc3n12 (centres undefined)	-4%	·
CC1CCC(NC(=O)C2CCN(c3c4c(nc5ncnn35)CCC4)CC2)CC1 (centres undefined)	-1%	·
Cc1cc2c3nonc3ccc2n1-c1ccccc1	25%	-3%
Cc1ccc(CCNC(=O)c2ccc(CS(=O)(=O)Cc3ccc(F)cc3)o2)cc1	-17%	0%
CCN(CC(=O)Nc1ccc(NC(C)=O)cc1)C(=O)Cc1ccc(S(=O)(=O)N2CCOCC2)s1	0%	0%
CCn1nc(NS(=O)(=O)c2ccc(NC(C)=O)cc2)c2cc3cccc(C)c3nc21	-1%	7%
COc1ccc(C(=O)NC(=S)Nc2ccc(S(N)(=O)=O)cc2)cc1	8%	5%
COc1ccc(-c2csc(Cc3nnc4n3CCCCC4)n2)cc1	12%	10%
Cc1c(NC(=O)Nc2cccc(C#N)c2)c(=O)n(-c2ccccc2)n1C	-10%	·
CCOC(=O)N1CCN(S(=O)(=O)c2ccc(F)c(C(=O)Nc3cccc(Cl)c3C)c2)CC1	-1%	-3%
COc1ccc(CC(=O)Nc2nc(-c3ccccc3)c(C(C)=O)s2)cc1OC	-10%	11%[0.0935 µM]
CN(C1(C)CCS(=O)(=O)C1)S(=O)(=O)c1ccc2ccccc2c1 (centres undefined)	6%	·
CCOC(=O)C(Cc1ccc(OC)c([N+](=O)[O-])c1)NC(=O)CCC(=O)Nc1ccc(C)cc1 (centres undefined)	16%	-4%
COc1ccc(CCC(=O)NCC2CCCCC2)cc1OC	-10%	1%
COCCCN1CC(=O)N2C(c3cccc(OC)c3OC)c3[nH]c4ccccc4c3C[C@H]2C1=O (some centres undefined)	-15%	·
CC(NC(=O)C1CCC(CNS(=O)(=O)c2ccc3c(c2)C(C)(C)C(=O)N3C)CC1)c1ccccc1 (centres undefined)	-11%	·
CCOC(=O)c1cccc(C(=O)Oc2ccccc2)n1	-1%	7%
CC(=O)c1c(N)nc2n(c1=O)CCCCC2	-16%	3%
CCC(Sc1nc2sc(C(=O)OC)c(C)c2c(=O)n1N)C(=O)N(CC)CC (centres undefined)	15%	4%
CCOC(=O)C1=C(C)N(CCO)C(=O)NC1c1cccc(O)c1 (centres undefined)	4%	5%
O=C(Nc1cccnc1)c1ccc(CSc2ccccc2)cc1	12%	3%

Remaining list, next part
SMILES	N370S GC	TDP1 inh
COc1ccc(CCNC(=O)CC(NC(=O)c2ccccc2Cl)c2ccccc2)cc1 (centres undefined)	6%	5%
O=C(c1ccc(N2CCN(C(=O)c3ccc(F)c(F)c3)CC2)cc1)c1cccc(F)c1	-2%	7%
CC(C)(C)NC(=O)C(c1ccncc1)N(C(=O)Cn1nnc(-c2cccs2)n1)C1CCCCC1 (centres undefined)	-11%	6%
CCOC(=O)c1sc2nc(CN3CCN(c4cccc(C(F)(F)F)c4)CC3)[nH]c(=O)c2c1C	-2%	5%
c1ccc(-c2nnc(-c3ccccn3)nc2NC2CCCCC2)cc1	-7%	7%
O=C(CCC1COc2ccccc2O1)Nc1ncccc1O (centres undefined)	4%	4%
CC(=O)Oc1ccc(C(=O)[C@H]2[C@H]3C(=O)N(c4ccccc4)C(=O)[C@H]3[C@@H]3C=CC=NN32)cc1	5%	-3%
Cc1cc(NS(=O)(=O)c2ccc(NC(=S)NC(=O)c3ccncc3)cc2)no1	-2%	·
COc1ccc(C2C(C(C)=O)=C(O)C(=O)N2CCc2ccccc2)c(OC)c1 (centres undefined)	0%	-1%
COc1cccc(/C=C/C(=O)OCC(=O)NCc2ccc(Cl)cc2)c1	-6%	0%
O=C(NCc1cccs1)C1CC(O)CN1C(=O)Nc1ccccc1 (centres undefined)	-4%	0%
Cc1nnc2n(-c3ccccc3)c(=O)c3c4c(sc3n12)COC(C(C)C)C4 (centres undefined)	-2%	1%
CC(C)(C)c1ccc(C(=O)N2CCCN(C(=O)c3ccc(C(C)(C)C)cc3)CC2)cc1	15%	0%
c1nc(N2CCOCC2)c2c3c(sc2n1)CCCC3	-5%	1%
Cc1ccc(OCC(=O)N(C)C2CCCCC2)c([N+](=O)[O-])n1	·	1%
COc1cccc(NC(=O)c2ccccc2-c2nc(-c3ccc(F)cc3)no2)c1	?	9%
CC1(C)C2CCC(C2)C1(C)NC(=O)CNCc1cccs1 (centres undefined)	-18%	-3%
COc1cc(S(=O)(=O)n2nc(C)cc2C)c(OC)cc1Cl	18%	-3%
CCOc1ccccc1N1CCN(C(=O)NC2CCCCC2)CC1	-1%	6%[56.1 µM]
Cc1ccc(Nc2nc(CSc3nnc(-c4ccncc4)n3C)cs2)cc1	6%	5%
CCOC(=O)c1cc(-c2csc(N/N=C/c3ccccc3Cl)n2)on1	2%	0%
COc1cccc(-c2nc(CS(=O)(=O)CC(=O)NCCCc3ccccc3)c(C)o2)c1	-8%	5%&5%
Cc1cccc(NC(=S)N2CCCCCC2)c1	1%	4%
N/C(=N/OC(=O)c1ccccc1Cl)c1nonc1N	-8%	2%
Cc1ccc(S(=O)(=O)Nc2cccc(C(=O)NCC(c3ccccc3)N(C)C)c2)cc1F (centres undefined)	-6%	-3%
CC1Sc2ccccc2N(CC(=O)N(C(C)C)C(C)C)C1=O (centres undefined)	-4%	2%
C/C(=N\NC(=O)COc1ccccc1F)c1cc2ccccc2o1	29%	8%
CN1CCN(CCc2cn3ncc(C#N)c3nc2-c2ccc(F)cc2)CC1	1%	5%
O=C(Nc1ccc(-n2cccn2)cc1)C1CCN(Cc2ccccn2)CC1	-7%	5%[56.1 µM]
O=C(Nc1ccc(F)cc1)Nc1ccc2ccccc2n1	-7%	·
COc1ccccc1C(=O)NCc1nnc(SC(C)C(=O)Nc2nccs2)n1C (centres undefined)	-3%	0%
COc1ccc(Cl)cc1NC(=O)COC(=O)CNC(=O)c1ccc([N+](=O)[O-])c(C)c1	-1%	5%
N#Cc1c(-c2ccc(Br)cc2)cc(-c2cccnc2)nc1N	4%	·
Cc1cc(NC(=O)CSc2nnc(-c3ccoc3C)o2)no1	4%	1%
CCCSc1nnc(NC(=O)c2cc(=O)c3ccccc3o2)s1	·	0%
CC(=O)C[C@@H](O)CC(=O)[C@@H]1OC(=O)[C@H](C)CCCCc2ccccc21	·	1%
COC(=O)c1c(C)[nH]c(C(=O)/C=C/c2cccc(Cl)c2)c1C	-11%	-1%
CCOC(=O)c1ccc(N2C(=O)C(O)=C(C(C)=O)C2c2ccccn2)cc1 (centres undefined)	-3%	0%
CCOC(=O)C1=C(C)N(CC(C)C)C(=O)C1	-4%	3%
C=CCN1C(=O)NC2(O)C(=O)c3ccccc3C12O (centres undefined)	3%	9%
COc1ccc(C2=NN(C(=O)CSc3ncccn3)C(c3cccc(OC)c3OC)C2)cc1 (centres undefined)	1%	5%
O=C(CSc1nnnn1-c1ccccc1)NCC1(N2CCOCC2)CCCCC1	·	1%
O=c1cc(CSc2nc3ccccc3c(=O)[nH]2)c2ccc(O)cc2o1	-22%	0%
CCCc1nc2n[nH]c(N)c2c2c1CCCC2	-12%	5%

A draw from above in order of molar mass, lowest first.
SMILES	N370S GC	TDP1 inh
CCOC(=O)C1=C(C)N(CC(C)C)C(=O)C1	-4%	3%
CCCc1nc2n[nH]c(N)c2c2c1CCCC2	-12%	5%
C=CCN1C(=O)NC2(O)C(=O)c3ccccc3C12O (centres undefined)	3%	9%
O=C(Nc1ccc(F)cc1)Nc1ccc2ccccc2n1	-7%	·
COC(=O)c1c(C)[nH]c(C(=O)/C=C/c2cccc(Cl)c2)c1C	-11%	-1%
Cc1cc(NC(=O)CSc2nnc(-c3ccoc3C)o2)no1	4%	1%
C/C(=N\NC(=O)COc1ccccc1F)c1cc2ccccc2o1	29%	8%
CC(=O)C[C@@H](O)CC(=O)[C@@H]1OC(=O)[C@H](C)CCCCc2ccccc21	·	1%
CCCSc1nnc(NC(=O)c2cc(=O)c3ccccc3o2)s1	·	0%
N#Cc1c(-c2ccc(Br)cc2)cc(-c2cccnc2)nc1N	4%	·
O=c1cc(CSc2nc3ccccc3c(=O)[nH]2)c2ccc(O)cc2o1	-22%	0%
CN1CCN(CCc2cn3ncc(C#N)c3nc2-c2ccc(F)cc2)CC1	1%	5%
CCOC(=O)c1ccc(N2C(=O)C(O)=C(C(C)=O)C2c2ccccn2)cc1 (centres undefined)	-3%	0%
O=C(CSc1nnnn1-c1ccccc1)NCC1(N2CCOCC2)CCCCC1	·	1%
COc1ccccc1C(=O)NCc1nnc(SC(C)C(=O)Nc2nccs2)n1C (centres undefined)	-3%	0%
COc1ccc(Cl)cc1NC(=O)COC(=O)CNC(=O)c1ccc([N+](=O)[O-])c(C)c1	-1%	5%

Reformatted with two lines to a compound: part of the list above
Results follow in this order: N370S GC | TDP1 inh
COc1ccc(Cl)cc1NC(=O)COC(=O)CNC(=O)c1ccc([N+](=O)[O-])c(C)c1
    -1% | 5%
CC(=O)C[C@@H](O)CC(=O)[C@@H]1OC(=O)[C@H](C)CCCCc2ccccc21
    · | 1%
